Screens (PubChem)
BJeLR lethal = kills HRASV12-expressing BJeLR cells. BJeLR (HRASV12) viability, CellTiter-Glo ATP luminescence, 48 h; reference of the scale not given here. inhibition, % (no concentration beside the values). actives 0.17% (n = 300,000). AID 1554;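 active means replicate mean above 50%; inconclusive means above 50% but judged a plate artefact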;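 further: 50 nL library stock added to about 25 µL; numbers are from one replicate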
RN4220 kill = S. aureus RN4220 growth inhibition; OD600, 16 h; inhibition, % (test concentration not listed); actives 0.33% (n = 330,000); AID 1259311;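 active means z-score of -3 or lower and OD600 up to 0.18 on both plates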;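 further: plate controls were untreated cells for no effect and reference antibiotic for full effect; stock transfer was 100 nL into about 80 µL; one replicate is shown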
Bead autofluor = compound fluorescence in toxin protease inhibitor counterscreen | compound autofluorescence counterscreen, microsphere flow cytometry; stronger effect = higher value | fluorescence intensity (concentration not given with the values) | actives 3.1% (n = 360,000) | AID 624483;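 active means at least 3 SD above the mean of all compounds, about 16000 in these data; inconclusive means too few beads counted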;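 further: 100 nL of 1 mM stock went into each well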
Mtb hypoxia inh = Mtb hypoxia fluorescent reporter inhibition; M. tuberculosis hypoxia-regulated fluorescent reporter, fluorescence; fluorescence inhibition, % (test concentration not listed); actives 0.1% (n = 300,000); AID 1159583;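 active means 35 to 45% if threefold the growth effect, above 45% if 1.5-fold the growth effect; inactive means the rest, general growth blockers included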;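 further: wells of about 50 µL received 100 nL stock; 0% = vehicle wells and 100% = reference inhibitor wells; whole bacteria with a GFP reporter of the hypoxia response; strong numbers were not always called active; many hits fall short of the cut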
PrP UTR inh = suppresses PrP 5' UTR mRNA reporter expression. inhibition, % (no concentration beside the values). actives 0.35% (n = 340,000). AID 488862. cell-based PrP 5' UTR mRNA reporter, plate reader;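 active means every replicate at 50% or more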;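 further: 0 = median of the neutral control wells; tested in H4 reporter cells; numbers are from one replicate; inactives centre near -14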
ugtP null kill = compounds lethal to S. aureus RN4220 ugtP deletion mutant. OD600 growth, 16 h; some inactives read as strong as hits. growth inhibition, % (no concentration beside the values). actives 0.54% (n = 330,000). AID 1259309;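 active means z-score under -3 and OD600 up to 0.15 on both plates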;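 further: plate controls were untreated wells for no effect and antibiotic for full effect; wells of about 80 µL received 100 nL stock; the first replicate is given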
Mtb hypoxia inh growth = also measured in Mtb hypoxia inh; calls as there; growth inhibition, %; measured here: M. tuberculosis growth (absorbance);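 0% = vehicle and 100% = reference antibiotic; read after six days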
* = called active by the depositor; ? = inconclusive; . = no result given.

Sample of the layout:
SMILES	BJeLR lethal	RN4220 kill	Bead autofluor	Mtb hypoxia inh	Mtb hypoxia inh growth	PrP UTR inh	ugtP null kill
O=C(CSc1n[nH]c(=O)n1C1CC1)c1c[nH]c2ccccc12	.	3.3	3690	8	11	-8	2
CC(=O)N1CCN(c2nc(C)nc3sc4c(c23)CCC(C)C4)CC1 (configuration not stated)	-12	3.7	9743	4	6	-17	-1
Cc1ccc(C(=O)NC(=S)Nc2ccc(NC(=O)c3cccc(Cl)c3)cc2)cc1	11	.	2428	.	.	10	.

All compounds of this part (from the top)
SMILES	BJeLR lethal	RN4220 kill	Bead autofluor	Mtb hypoxia inh	Mtb hypoxia inh growth	PrP UTR inh	ugtP null kill
O=C(CSc1n[nH]c(=O)n1C1CC1)c1c[nH]c2ccccc12	.	3.3	3690	8	11	-8	2
CC(=O)N1CCN(c2nc(C)nc3sc4c(c23)CCC(C)C4)CC1 (configuration not stated)	-12	3.7	9743	4	6	-17	-1
Cc1ccc(C(=O)NC(=S)Nc2ccc(NC(=O)c3cccc(Cl)c3)cc2)cc1	11	.	2428	.	.	10	.
O=C1NC(=O)C(=Cc2ccc(-c3ccc(Cl)cc3)o2)C(=O)N1	4	.	2997	.	.	-19	.
CCc1ccc([C@@H]2CC=C(C(=O)O)[C@H](c3ccc(C)cc3)N2S(=O)(=O)c2ccc(C)cc2)cc1	.	68	3735	-4	-6	-60	45
Cc1noc(C)c1C(=O)Nc1ccc(C#N)cc1	-1	2.6	5990	13	5	-17	-1
CCC(=NNC(=O)c1ccccc1)c1ccc(OCCN2CCOCC2)cc1	.	3.1	.	-3	6	.	2
CC(C)(CNC(=O)CC1C(=O)NCCN1Cc1cccc(F)c1)N1CCOCC1 (configuration not stated)	-3	0.1	5587	0	3	-13	4
Cn1c(=O)c2ncn(CC(=O)N/N=C/C=C/c3ccccc3)c2n(C)c1=O	0	.	3455	.	.	-23	.
COC(=O)c1ccc(N2C(=O)C3CC=CC(C)C3C2=O)cc1 (configuration not stated)	6	3.3	4596	11	7	-14	4
Cc1ccc(N=CC2=C(O)CC(c3cccc(Cl)c3)CC2=O)cc1 (configuration not stated)	6	4.0	2461	-5	5	-7	5
O=C(NCC1CCCO1)c1c(O)c2ccccc2[nH]c1=O (configuration not stated)	5	0.3	2475	.	.	-24	7
CN1CCN(CCCCOc2ccc(Br)cc2)CC1	4	-0.5	3926	1	2	-11	2
CC(C)NC(=O)c1ccc2c(c1)N(CC(=O)N1CCCCC1)C(=O)C(C)(C)O2	-1	-6.0	3724	-2	-2	-30	-4
COc1ccc(C(=O)NC(=S)NNC(=O)c2c(-c3ccccc3)noc2C)cc1OC	16	35	5734	2	-5	-14	22
O=C(c1nc2ccccn2c1CN1CCC(Cc2ccccc2)CC1)N1CCCC1	-3	5.8	2796	4	10	-9	11
CCc1ccccc1N1CC(C(=O)Nc2cc(C)on2)CC1=O (configuration not stated)	1	2.8	3749	5	4	-14	13
CCc1cc(=O)oc2c3c(cc(OCC(=O)NCc4cccnc4)c12)OC(C)(C)CC3	4	-0.7	5508	.	.	-13	-3
CC(C)NCc1cc(Br)ccc1OCc1ccccc1	-2	1.2	4575	12	14	-19	6
Cc1cccc(NC(=O)c2nc[nH]c2C(=O)NCC(=O)OCc2ccccc2)c1	4	6.2	3242	5	1	12	7
O=C1CCC(C(=O)OCc2nnc(-c3ccc(Br)cc3)o2)=NN1	.	7.1	3994	14	4	-7	-7
Cc1ccc(-n2nc3c(=O)n(CCCC(=O)NCCc4ccccc4C)nc(C)c3c2C)cc1	-10	2.3	5463	2	-1	-13	0
NC(CS(=O)O)C(=O)O (configuration not stated)	2	3.9	5643	0	0	-25	-4
CSc1nc(Cl)c(Br)c(Nc2c[nH]c(=O)[nH]c2=O)n1	.	2.4	2888	13	6	-8	6
Cc1nnc(-c2cccc(Br)c2)c2cn(-c3cccc(Br)c3)nc12	3	.	34824*	.	.	-19	.
O=C(c1ccc(N2CCCC2=O)cc1)N1CCCCCC1	5	-0.4	4738	3	-2	-13	3
CCOc1ccc(S(=O)(=O)NNC(=S)Nc2ccc(Br)cc2)cc1	7	4.4	5138	-2	5	-18	-10
COc1ccc(NC(=O)C2Cc3ccccc3CN2C(=O)c2ccccc2)cn1 (configuration not stated)	6	2.9	4806	0	0	-24	3
COC(=O)c1cc(Br)c(=O)n(CCc2ccc(F)cc2)c1	-3	-2.7	2443	.	.	-31	4
COc1ccc2c(=O)cc(C(=O)O)oc2c1	-1	1.9	4625	3	-1	-17	1
COc1ccc(OCCSc2nc(N)cc(=O)[nH]2)cc1	1	6.8	3029	-3	-3	-10	16
Cc1cc(NC(=O)[C@H](C)NC(=O)c2ccco2)ccc1Br	-11	4.4	3705	7	6	-23	-1
COc1ccc(/C=N/Nc2cc(C)nc3ccc(Br)cc23)cc1	-1	.	3461	.	.	-16	.
CCN(C(=O)COC(=O)c1ccc(F)c(S(=O)(=O)N2CCOCC2)c1)C1CCS(=O)(=O)C1 (configuration not stated)	-4	5.2	6329	4	-4	-10	5
Cc1ccc(S(=O)(=O)/N=C(/c2ccc(F)cc2)N2CCCCC2)cc1	-5	.	9057	.	.	-30	.
COc1ccc(CCNc2nc(-c3ccco3)cc(C(F)(F)F)n2)cc1OC	4	2.1	3888	7	11	-10	-14
O=C(O)CCC(=O)NCc1ccc(C(=O)O)cc1	-5	2.8	3852	1	2	-7	4
CC(C)OCCCNc1nc(-c2ccccc2)nc2ccccc12	-2	-1.9	3273	11	2	-8	-4
OCC(CO)(CO)N=Cc1c(O)ccc2ccccc12	6	9.4	16546*	8	9	-22	4
O=S(=O)(/N=C(/c1ccccc1)N1CCOCC1)c1ccc(Br)cc1	0	.	4828	.	.	-12	.
CCNc1nc(NCC)nc(N(CC)C(N)=S)n1	-6	7.0	4176	17	9	-3	10
C=CCN1CN(S(=O)(=O)c2ccc(OC)cc2)c2nc3ccccc3nc21	6	-0.6	5906	17	4	5	3
Cc1ccc(NNC(=S)Nc2ccc(C(C)C)cc2)c(C)c1	12	0.7	1907	3	5	-19	6
N#Cc1ccc(C=NNC(=S)Nc2ccc(S(=O)(=O)N3CCOCC3)cc2)cc1	.	1.1	.	-10	1	.	19
O=C1CC(c2ccccc2)=NN1c1ccc([N+](=O)[O-])cc1	-14	58	3998	12	3	-39	82
O=C(CSc1nnc(CNC(=O)c2ccc(F)cc2)o1)NCc1ccccc1	0	0.5	5880	5	5	-16	3
COc1ccccc1NC(=O)C1CCCN1C(=O)Nc1ccc(F)cc1 (configuration not stated)	-1	4.3	4599	2	1	-10	2
COc1ccc(OC)c(C(O)CNC(=O)CN)c1 (configuration not stated)	-9	0.2	5390	1	-8	-24	-8
Cc1cc(C)cc(NC(=S)NCc2ccc3[nH]c4c(c3c2)CCCC4)c1	16	-5.9	5368	1	3	-7	6
CC(C)(C)NC(=O)NC(=O)Cn1ccsc1=N	-18	6.8	10078	-3	2	-13	3

(list continues)
SMILES	BJeLR lethal	RN4220 kill	Bead autofluor	Mtb hypoxia inh	Mtb hypoxia inh growth	PrP UTR inh	ugtP null kill
CCCc1cc(-c2nc(-c3ccc(Br)cc3)cs2)ccn1	-2	-1.5	2099	22	26	-29	-5
Cn1cc(/C=C2/SC(=O)N(CC(=O)Nc3ccc4c(c3)OCO4)C2=O)c2ccccc21	-8	-1.6	9211	-4	-11	5	-1
Cc1ccc(N(CC(=O)NC2CC2)S(=O)(=O)c2ccccc2)c(C)c1	7	0.2	?	5	3	-21	-6
Cc1ccc(S(=O)(=O)NCCN=Cc2ccc(N(C)C)cc2)cc1	8	7.3	5261	13	9	-10	2
COc1ccc(S(=O)(=O)Nc2cc3c4c(c2)CC(=O)N4CCC3)cc1C	10	4.0	6721	0	-5	-37	7
COc1ccccc1OCC(=O)Sc1ccc(C)cc1	-8	4.8	5972	10	4	-2	28
O=c1oc2ccccc2cc1-c1cn2ccccc2n1	40	1.9	3570	3	0	81*	-3
Cc1ccc(S(=O)(=O)NCC(=O)OCC(=O)c2ccc(Cl)s2)cc1	-2	3.6	4551	7	-1	-24	8
CCCCOc1ccc(N(CC(=O)NC(C)(C)C)C(=O)CCC(=O)Nc2nccs2)cc1	-3	2.7	4005	-3	-6	-10	2
O=C(c1cccc(S(=O)(=O)N2CCN(c3ccccc3)CC2)c1)N1CCCCCCC1	-3	2.4	?	-1	-2	-4	-2
Cc1cc(OCC(=O)NCCN2CCOCC2)c2c(C)c(C)c(=O)oc2c1	6	5.7	5727	-5	-12	-8	10
COc1ccc(N=C2SC(=Cc3ccco3)C(=O)N2CC(C)C)cc1	.	2.5	.	10	3	.	-4
CCOc1ccccc1OCC(=O)Nc1nnc(C)s1	10	-4.6	9096	-8	9	-2	-7
CCN1CCN(S(=O)(=O)c2cccs2)CC1	7	4.2	10610	3	-2	-29	5
O=P1(NCc2ccco2)COc2ccccc2OC1	0	1.5	3869	17	5	-3	2
O=C([O-])c1cc(-c2ccccc2)cc(-c2ccccc2)[n+]1Cc1ccccc1	9	5.3	.	0	3	.	7
COc1ccc(C(C)=O)cc1Cn1cnc2c(cnn2C)c1=O	3	3.6	3150	14	12	-20	9
O=C(Cn1c(=O)sc2ccccc21)Nc1ccc(O)cc1	2	-0.7	2588	-8	-14	-6	-2
Cn1c(=O)c2cc(S(=O)(=O)NC(C(=O)Nc3cccnc3)c3ccccc3)ccc2n(C)c1=O (configuration not stated)	.	2.4	5539	1	4	-21	8
CC(C)CSc1oc(-c2ccco2)nc1S(=O)(=O)c1ccccc1	-5	.	5028	.	.	-22	.
CC(=O)N(C)c1ccc(OCC(O)COc2ccc(N(C)C(C)=O)cc2)cc1	3	2.0	4830	.	.	-5	2
CC(=O)COc1ccc(-c2csnn2)cc1	11	4.1	3403	4	13	-34	12
CC(C)n1c(CN2CCN(Cc3ccccc3)CC2)nc2ccccc21	-4	2.4	4966	1	-1	-26	8
Cc1cccc(NC(=O)C2CCCN(S(=O)(=O)c3cccc4nsnc34)C2)n1 (configuration not stated)	-17	-0.9	4176	.	.	-15	-2
N/C(=N\OC(=O)c1ccccc1F)c1cccc([N+](=O)[O-])c1	-3	.	3359	.	.	-92	.
CCN(CC)S(=O)(=O)c1ccc(/C=C/C(=O)Nc2ccc(F)c(F)c2F)cc1	21	3.4	8600	13	7	-22	-1
CN1C(=O)c2oc3ccccc3c(=O)c2C1c1cccnc1 (configuration not stated)	-2	1.5	3521	9	1	-13	-5
Cn1c(CCC(=O)O)nc2cc(S(=O)(=O)N3CCCCC3)ccc21	.	3.3	3823	3	-4	-13	6
COc1ccc(-c2cc3ccc(OCc4nn[nH]n4)cc3oc2=O)cc1OC	.	9.5	9890	16	6	-18	-3
COc1ccc(C(C(=O)NCc2ccccc2)N(Cc2ccco2)C(=O)c2snc(C(N)=O)c2N)cc1OC (configuration not stated)	1	4.6	3640	10	-5	-20	16
O=C(CCNS(=O)(=O)c1ccc(Br)cc1)NCc1ccco1	6	3.1	.	1	-3	-15	6
Cc1ccc(S(=O)(=O)NN=C2CC(c3ccccc3)Oc3ccccc32)cc1[N+](=O)[O-] (configuration not stated)	.	-0.1	.	5	7	.	-1
COC(=O)[C@@H]1C(OC(=O)c2ccccc2)CC2CCC1N2C (some centres not stated)	.	3.2	5704	.	.	-2	-8
O=C(CCN1C(=O)c2ccccc2S1(=O)=O)Nc1ccccc1F	-18	2.0	5062	2	3	-7	-5
O=C1c2ccccc2C(=O)N1CC1=NCCc2ccccc21	-3	5.0	2302	5	16	-1	10
CCCCN(CC(=O)Nc1cccc(S(=O)(=O)N2CCCC2)c1)Cc1nc2ccccc2c(=O)[nH]1	.	0.2	.	-1	5	-24	-1
Cc1occc1C(=O)N1CCCC(CCC(=O)NCc2ccc(F)c(F)c2)C1 (configuration not stated)	3	8.6	4352	2	6	-9	6

Whole records, quoted from the list:
Cc1ccc(-n2nc3c(=O)n(CCCC(=O)NCCc4ccccc4C)nc(C)c3c2C)cc1 across the screens: BJeLR lethal: -10; RN4220 kill: 2.3; Bead autofluor: 5463; Mtb hypoxia inh: 2; Mtb hypoxia inh growth: -1; PrP UTR inh: -13; ugtP null kill: 0
COc1ccc(C(C)=O)cc1Cn1cnc2c(cnn2C)c1=O across the screens: BJeLR lethal: 3; RN4220 kill: 3.6; Bead autofluor: 3150; Mtb hypoxia inh: 14; Mtb hypoxia inh growth: 12; PrP UTR inh: -20; ugtP null kill: 9
COC(=O)c1cc(Br)c(=O)n(CCc2ccc(F)cc2)c1 across the screens: BJeLR lethal: -3; RN4220 kill: -2.7; Bead autofluor: 2443; Mtb hypoxia inh: .; Mtb hypoxia inh growth: .; PrP UTR inh: -31; ugtP null kill: 4
